RN4220 kill: S. aureus RN4220 growth inhibition; OD600, 16 h; inhibition, % (test concentration not listed); 0.33% of 330,000 active;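 active means z-score of -3 or lower and OD600 up to 0.18 on both plates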;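 further: plate controls were untreated cells for no effect and reference antibiotic for full effect; stock transfer was 100 nL into about 80 µL; one replicate is shown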
Sa ugtP lethal: kills S. aureus RN4220 lacking UgtP | S. aureus RN4220 ugtP deletion, OD600 growth, 16 h; some inactives read as strong as hits | growth inhibition, % (no concentration beside the values) | 0.54% of 330,000 active;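 active means z-score under -3 and OD600 up to 0.15 on both plates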;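 further: plate controls were untreated wells for no effect and antibiotic for full effect; wells of about 80 µL received 100 nL stock; the first replicate is given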
PrP 5UTR inh: inhibition of PrP 5' UTR reporter expression | inhibition, % (test concentration not listed) | cell-based PrP 5' UTR mRNA reporter, plate reader | 0.35% of 340,000 active | AID 488862;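 active means every replicate at 50% or more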;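 further: 0 = median of the neutral control wells; tested in H4 reporter cells; numbers are from one replicate; inactives centre near -14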
Mtb hypoxia inh: inhibitors of hypoxia-regulated fluorescent reporter in Mycobacterium tuberculosis; 0.1% of 300,000 active; M. tuberculosis hypoxia-regulated fluorescent reporter, fluorescence; fluorescence inhibition, % (concentration not given with the values);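 active means 35 to 45% if threefold the growth effect, above 45% if 1.5-fold the growth effect; inactive means the rest, general growth blockers included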;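 further: wells of about 50 µL received 100 nL stock; 0% = vehicle wells and 100% = reference inhibitor wells; whole bacteria with a GFP reporter of the hypoxia response; strong numbers were not always called active; many hits fall short of the cut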
Bead autofluor: counter-screen for toxin protease inhibitors: compound fluorescence; compound autofluorescence counterscreen, microsphere flow cytometry; active compounds read high; 3.1% of 360,000 active; fluorescence intensity (test concentration not listed); AID 624483;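 active means at least 3 SD above the mean of all compounds, about 16000 in these data; inconclusive means too few beads counted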;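 further: 100 nL of 1 mM stock went into each well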
BJeLR lethal: BJeLR cell viability loss | BJeLR (HRASV12) viability, CellTiter-Glo ATP luminescence, 48 h; reference of the scale not given here | inhibition, % (test concentration not listed) | 0.17% of 300,000 active | AID 1554;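 active means replicate mean above 50%; inconclusive means above 50% but judged a plate artefact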;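 further: 50 nL library stock added to about 25 µL; numbers are from one replicate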
Mtb hypoxia inh growth: also measured in Mtb hypoxia inh; calls as there; growth inhibition, %; measured here: M. tuberculosis growth (absorbance);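 0% = vehicle and 100% = reference antibiotic; read after six days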
An asterisk follows results filed as active; ? = inconclusive; nt = no result given.

SMILES	RN4220 kill	Sa ugtP lethal	PrP 5UTR inh	Mtb hypoxia inh	Mtb hypoxia inh growth	Bead autofluor	BJeLR lethal
CCCCCC(C)NC(=O)c1cc(S(=O)(=O)N2CCCCC2)ccc1N1CCOCC1 (stereo not drawn)	5.7	6	-9	6	4	9288	nt
Fc1cc(F)cc(Nc2nc(Cl)nc(NC3CCCC3)n2)c1	-14	33	-9	-4	3	2933	nt
Brc1ccc(-c2nc3ncccn3c2Nc2ccc3c(c2)OCCO3)o1	-0.4	-12	-27	6	24	9682	-9
COc1ccc(OC)c(/C=C/C(=O)OCC(=O)N2CCCC2)c1	1.3	1	16	-11	0	3740	nt
COc1ccccc1N1CCN(S(=O)(=O)c2cc3c(cc2C)NC(=O)CO3)CC1	-3.3	-7	-28	8	8	6082	10
O=C(CN1C(=O)NC2(CCCC2)C1=O)OCCOc1ccccc1	1.1	8	-7	7	3	5920	2
CC(C)(C)C(=O)Nc1nc2cc3c(cc2s1)OCO3	4.9	6	-75	-1	6	3995	9
O=C(Nc1ccc(OC(F)(F)F)cc1)Nc1cccnc1	-0.3	-25	-14	0	-5	6460	8
CC1(C)CC(=O)c2cc(OCC(=O)NCCN3CCOCC3)ccc2O1	0.1	-3	-33	-4	1	4170	2
COc1cccc(/C=C2/SC(=O)N(C)C2=O)c1OCc1ccc(C(=O)O)cc1	4.5	-6	-23	11	-4	3489	0
CC(N=Nc1nc2ccccc2s1)=NNc1ccccc1O	13	24	nt	10	14	nt	nt
COc1ccc(OCC(=O)Nc2ccccc2C(=O)NC2CC2)cc1	0.4	-1	-25	5	7	6290	nt
CCOC(=O)C1CCN(C(=O)COC(=O)c2ccc3[nH]c4c(c3c2)CCCC4)CC1	0.2	10	-15	6	-6	5100	-3
O=C(NC1CCCC1)c1cccnc1N1CCCCCC1	3.6	9	-34	10	5	8029	-9
CCOC(=O)c1oc2ccccc2c1CSc1nnc(-c2ccco2)o1	7.1	5	-4	3	12	6181	-1
COc1ccc(C)cc1NC(=O)Nc1cnccn1	4.4	8	-21	18	5	2383	3
CCOC(=O)C1CCN(C(=O)Cn2cccc2C(=O)c2ccccc2)CC1	1.0	5	-13	6	-2	6507	2
CCOc1ccc(C(=O)/C=C/c2ccccc2C(F)(F)F)cc1	7.0	-1	-19	1	7	7832	-3
CCN(CC(=O)Nc1c(F)cccc1F)C(=O)CCc1ccc(OC)cc1	-1.6	9	-27	-1	11	5773	10
CCOC(=O)Nc1ccc2c(c1)N(C(=O)CN1CCN(CCO)CC1)c1ccccc1CC2	-0.1	6	-22	3	-1	nt	-1
Cc1[nH][nH]c(=O)c1C=NCc1ccc(Cl)cc1	2.3	-1	-20	8	4	3034	-2
O=S(=O)(c1ccccc1)c1ccc(N2CCCCCC2)cc1	6.9	6	-50	12	-2	3169	6
O=[N+]([O-])c1ccccc1C=NNc1nccnc1Cl	2.9	4	nt	-1	-6	nt	nt
Nc1nc(NC(=O)c2ccccc2Cl)nn1-c1ccccc1	3.7	7	nt	9	3	nt	0

The last 2 compounds of the part above open the next one.
SMILES	RN4220 kill	Sa ugtP lethal	PrP 5UTR inh	Mtb hypoxia inh	Mtb hypoxia inh growth	Bead autofluor	BJeLR lethal
O=[N+]([O-])c1ccccc1C=NNc1nccnc1Cl	2.9	4	nt	-1	-6	nt	nt
Nc1nc(NC(=O)c2ccccc2Cl)nn1-c1ccccc1	3.7	7	nt	9	3	nt	0
Cc1cccc(NC(=O)CN(CC2CCCO2)C(=O)c2cc3ccccc3o2)c1C (stereo not drawn)	8.6	-2	-13	20	2	6229	nt
O=C(CN(Cc1ccccc1)S(=O)(=O)c1ccc2c(c1)OCCO2)N/N=C/c1ccc(F)cc1	nt	nt	-17	nt	nt	9995	10
O=C(CC(NS(=O)(=O)c1ccc(Cl)cc1)c1ccco1)NCc1cccnc1 (stereo not drawn)	-4.3	10	-21	nt	nt	2633	-1
CN(C)S(=O)(=O)c1ccc(C(=O)N2CCN=C2SCc2cccnc2)cc1	2.6	11	-13	1	-5	2408	5
COc1ccc(Cl)cc1NC(=O)CN(C)C(=O)/C=C/c1ccco1	6.0	7	-12	6	5	3755	nt
CC1=NN(c2nc(-c3ccc(C)cc3)cs2)C(=O)C1N=Nc1ccccc1O (stereo not drawn)	5.5	0	22	11	2	5222	14
COc1ccccc1C(CNC(=O)c1cc(C)nc2ccccc12)N(C)C (stereo not drawn)	4.8	14	-22	4	3	5842	-8
COc1cc(C=O)c(Br)cc1OCC(=O)NCCc1ccccc1	5.7	7	-21	1	-5	2082	9
COc1ccc(C=NN(CCC(=O)NC(C)(C)C)C2=NS(=O)(=O)c3ccccc32)cc1	1.6	1	nt	1	12	nt	nt
COc1ccc(-n2c(SCC(=O)NCC3CCCO3)nc3ccccc32)cc1 (stereo not drawn)	2.7	-2	-12	8	13	2765	-12
Cn1c(=O)cc(OCC(=O)N2CCCc3ccccc32)c2ccccc21	3.7	0	-12	5	4	21145*	1
O=C(Nc1ccc(C#Cc2ccccc2)cc1)C1CC1	-2.3	-8	-22	-6	-11	?	20
CC(C)NS(=O)(=O)c1ccc(CCC(=O)Nc2ccc3c(c2)OCCO3)cc1	5.5	3	-12	12	10	2309	0
O=C(Cc1ccc(F)cc1)N1CCC(N2CCC(C(=O)N3CCOCC3)CC2)CC1	1.5	-1	10	1	0	4106	nt
CCOc1ccc(C(=O)Nc2cc3c(cc2N2CCCC2)n(CC)c(=O)n3CC)cc1OCC	-0.6	-8	-5	1	8	4695	-2
Clc1ccc(-n2nnnc2-c2cnc(-c3ccncc3)nc2-c2cccs2)cc1	13	-6	-20	12	8	3873	0
Cc1csc(NC(=O)CSc2ncn(-c3ccccc3)n2)n1	5.3	1	-12	9	10	4607	-2
Cc1ccc2nc3c(c(C(=O)O)c2c1)CCC3	8.0	4	-19	6	8	9591	1
COc1cc2c(cc1OC)CN(CC(=O)Nc1ccc3c(c1)OC(F)(F)O3)CC2	0.3	-7	-9	-1	5	24021*	0
CC(=O)Nc1ccc(S(=O)(=O)N2CCSC2)cc1	nt	nt	-17	nt	nt	4258	0
Nc1ccccc1SCC(=O)Nc1ccc(N2CCOCC2)cc1	0.9	-3	-7	nt	nt	?	-5
Cc1ccc(C)c(S(=O)(=O)N2CCN(C(=O)C3CCN(C(=O)c4ccc(F)cc4)CC3)CC2)c1	0.2	9	-17	2	1	6234	11
CCOc1ccc(NC(=O)CN(C)C(=O)CCNC(=O)c2ccc(Br)cc2)cc1OCC	-2.5	0	-20	-11	-4	4094	-9
CCCNC(=O)C1CC(=O)N(c2ccc(OCC(=O)Nc3cc(C)cc(C)c3)cc2)C1 (stereo not drawn)	8.4	6	-22	nt	nt	6142	-6

Some of the entries so far, with values under each structure.
Sequence of screens – RN4220 kill	Sa ugtP lethal	PrP 5UTR inh	Mtb hypoxia inh	Mtb hypoxia inh growth	Bead autofluor	BJeLR lethal
- CCCCCC(C)NC(=O)c1cc(S(=O)(=O)N2CCCCC2)ccc1N1CCOCC1 (stereo not drawn)
    5.7	6	-9	6	4	9288	nt
- Fc1cc(F)cc(Nc2nc(Cl)nc(NC3CCCC3)n2)c1
    -14	33	-9	-4	3	2933	nt
- Brc1ccc(-c2nc3ncccn3c2Nc2ccc3c(c2)OCCO3)o1
    -0.4	-12	-27	6	24	9682	-9
- COc1ccc(OC)c(/C=C/C(=O)OCC(=O)N2CCCC2)c1
    1.3	1	16	-11	0	3740	nt
- COc1ccccc1N1CCN(S(=O)(=O)c2cc3c(cc2C)NC(=O)CO3)CC1
    -3.3	-7	-28	8	8	6082	10
- O=C(CN1C(=O)NC2(CCCC2)C1=O)OCCOc1ccccc1
    1.1	8	-7	7	3	5920	2
- CC(C)(C)C(=O)Nc1nc2cc3c(cc2s1)OCO3
    4.9	6	-75	-1	6	3995	9
- O=C(Nc1ccc(OC(F)(F)F)cc1)Nc1cccnc1
    -0.3	-25	-14	0	-5	6460	8
- CC1(C)CC(=O)c2cc(OCC(=O)NCCN3CCOCC3)ccc2O1
    0.1	-3	-33	-4	1	4170	2
- COc1cccc(/C=C2/SC(=O)N(C)C2=O)c1OCc1ccc(C(=O)O)cc1
    4.5	-6	-23	11	-4	3489	0
- CC(N=Nc1nc2ccccc2s1)=NNc1ccccc1O
    13	24	nt	10	14	nt	nt
- COc1ccc(OCC(=O)Nc2ccccc2C(=O)NC2CC2)cc1
    0.4	-1	-25	5	7	6290	nt
- CCOC(=O)C1CCN(C(=O)COC(=O)c2ccc3[nH]c4c(c3c2)CCCC4)CC1
    0.2	10	-15	6	-6	5100	-3
- O=C(NC1CCCC1)c1cccnc1N1CCCCCC1
    3.6	9	-34	10	5	8029	-9
- CCOC(=O)c1oc2ccccc2c1CSc1nnc(-c2ccco2)o1
    7.1	5	-4	3	12	6181	-1
- COc1ccc(C)cc1NC(=O)Nc1cnccn1
    4.4	8	-21	18	5	2383	3

Next structures
SMILES	RN4220 kill	Sa ugtP lethal	PrP 5UTR inh	Mtb hypoxia inh	Mtb hypoxia inh growth	Bead autofluor	BJeLR lethal
CCN1CCN(C(=O)C2CCN(C(=O)c3cc4sccc4n3CC)CC2)CC1	5.1	5	-18	3	-5	7174	0
O=C(COc1ccc(Cl)cc1Cl)NNC(=S)NCc1ccco1	10	-24	-12	10	8	1967	-6
N#CC1=C(N)OC2=C(C(=O)CCC2)C1c1ccsc1 (stereo not drawn)	2.2	2	-15	19	8	4856	3
c1coc(-c2ncc[nH]2)c1	-5.3	-10	9	nt	nt	4149	5
CCN=C1S/C(=C\c2ccc(Sc3ccc(Cl)cc3)o2)C(=O)N1CC	nt	nt	-5	nt	nt	3325	1
CC1CCN(CCCOc2ccc(Cl)cc2Br)CC1	3.1	-3	-11	6	5	4596	12
Nc1ncnc2c1ncn2[C@@H]1O[C@H](CNC(=O)[C@H](N)Cc2cscn2)[C@@H](O)[C@H]1O	-6.0	-6	8	-8	-7	2986	nt
O=S1(=O)N=C(N=Nc2c(O)[nH]c3ccccc23)c2ccccc21	1.0	0	-4	16	-1	2326	-3
CCOC(=O)Cc1csc(NC(=O)CSc2nnc(C)n2C)n1	3.4	4	-8	2	4	3239	1
Cc1c(NC(=O)NC(=O)c2ccc(F)cc2)c(=O)n(-c2ccccc2)n1C	-11	3	-8	6	-8	2464	1
CCCCNCc1nc2ccccc2c(=O)[nH]1	5.3	4	-1	-1	-2	3382	7
COC(=O)c1ccccc1NC(=O)Oc1ccc(F)cc1	0.7	6	-15	-1	-3	16560*	2
CCOC(=O)c1c(NC(=O)CN2CCOCC2)sc2c1CCCC2=O	3.4	1	-20	2	11	3596	-3
O=C1C(Cc2ccccc2)Nc2ncnc(N3CCN(c4ccccc4)CC3)c2N1Cc1ccc(Cl)cc1 (stereo not drawn)	3.0	-6	-6	-7	-3	3274	0
NC(=O)CC(NC(=O)c1ccccc1)c1ccc(NCCCN2CCCC2=O)c([N+](=O)[O-])c1 (stereo not drawn)	5.7	0	-18	15	14	3834	2
Cc1ccccc1C(=O)Nc1ccnn1C1CCN(Cc2ccncc2)CC1	1.1	6	-10	-1	-7	4551	6
N#Cc1c([N+](=O)[O-])cc([N+](=O)[O-])cc1S(=O)(=O)Cc1ccccc1	34	57	-30	nt	nt	4110	nt
CCc1nnc(NC(=O)CCC(=O)N2CCN(S(=O)(=O)c3ccc(OC)cc3)CC2)s1	4.4	6	-17	8	-5	5655	7
CCOC(=O)CNC(=O)N1CCCC(N(C)CCc2ccccc2)C1 (stereo not drawn)	3.3	5	-13	-1	-3	4084	-1
COc1ccc(Cl)cc1S(=O)(=O)n1ccnc1	1.5	14	-33	8	8	3470	-3
Cc1ccc(NC(=O)c2ccc(S(=O)(=O)N3CCC(C)CC3)cc2)cc1	7.3	-15	-15	8	9	20894*	8

Source: PubChem BioAssay (several laboratories)
